# Screens from PubChem.
# HNF4A DNA FP = change in binding of human HNF4A to DNA, primary screen, biochemical, fluorescence polarization, FITC-DNA | Hepatocyte nuclear factor 4-alpha (Homo sapiens), P41235 | 1 h | activity change, % at 10 µM | 360,000 tested, 0.3% active | AID 1224865, 2016; in the data active = activity change above about 30%, passing the limit was not always enough;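 also: controls were the assay level and a saturating level of protein; the project sought stronger binding though the title names inhibitors; some compounds called inactive have numbers as strong as hits; positive values seem to mean higher polarization but the record does not say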
# Target sequence (P41235 whole entry, looked up): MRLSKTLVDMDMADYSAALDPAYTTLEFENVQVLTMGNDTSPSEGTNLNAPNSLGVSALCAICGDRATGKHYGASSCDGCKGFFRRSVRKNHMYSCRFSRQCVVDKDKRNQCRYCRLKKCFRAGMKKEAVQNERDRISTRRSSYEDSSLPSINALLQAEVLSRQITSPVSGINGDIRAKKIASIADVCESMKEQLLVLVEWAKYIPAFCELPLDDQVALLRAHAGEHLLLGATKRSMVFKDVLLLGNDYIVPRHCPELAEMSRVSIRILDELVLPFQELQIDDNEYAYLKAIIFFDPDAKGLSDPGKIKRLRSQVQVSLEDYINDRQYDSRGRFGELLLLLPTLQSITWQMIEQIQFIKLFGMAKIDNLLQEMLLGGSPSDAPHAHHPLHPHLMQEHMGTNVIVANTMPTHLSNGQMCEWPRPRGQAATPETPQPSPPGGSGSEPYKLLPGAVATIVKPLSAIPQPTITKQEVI
# E coli growth = E. coli growth inhibition, primary screen, OD600 | Escherichia coli growth, 23 h; hits give low values | OD600 absorbance (concentration not given with the values) | 330,000 tested, 0.21% active | AID 1053175, 2014;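 active = OD600 absorbance below the run mean of sample wells minus 3.6 SD, in any replicate, cut at about 0.56 in these data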;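 also: stock transfer was 300 nL into about 60 µL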
# Beta2AR agonist = beta2AR agonists driving receptor internalization, primary screen, cell-based, FAP fluorogen, flow cytometry; Beta-2 adrenergic receptor (Homo sapiens), P07550; Am2.2-beta2AR cells; reference of the scale not given here; response, % (test concentration not listed); 340,000 tested, 0.43% active; AID 504454, 2011;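 active = response above a set limit, near 3 SD of response in nonfluorescent compounds, cut at about 42% in these data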;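 also: stock transfer was 100 nL into about 11 µL; a reference agonist was the positive control; negative values mostly stem from fluorescent compounds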
# UCH37 DUB inh = inhibitors of human UCH37 deubiquitinase, primary screen, biochemical, Ub-AMC cleavage, fluorescence; Ubiquitin carboxyl-terminal hydrolase isozyme L5 (Homo sapiens), Q9Y5K5; purified proteasome/UCH37; inhibition, % (concentration not given with the values); 330,000 tested, 0.33% active; AID 588478, 2011;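 active = mean of two replicates above 20%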;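 also: 0% = compound-free wells with enzyme and 100% = wells lacking proteasome; stock transfer was 100 nL into about 20 µL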
# Target sequence (Q9Y5K5 whole entry, looked up): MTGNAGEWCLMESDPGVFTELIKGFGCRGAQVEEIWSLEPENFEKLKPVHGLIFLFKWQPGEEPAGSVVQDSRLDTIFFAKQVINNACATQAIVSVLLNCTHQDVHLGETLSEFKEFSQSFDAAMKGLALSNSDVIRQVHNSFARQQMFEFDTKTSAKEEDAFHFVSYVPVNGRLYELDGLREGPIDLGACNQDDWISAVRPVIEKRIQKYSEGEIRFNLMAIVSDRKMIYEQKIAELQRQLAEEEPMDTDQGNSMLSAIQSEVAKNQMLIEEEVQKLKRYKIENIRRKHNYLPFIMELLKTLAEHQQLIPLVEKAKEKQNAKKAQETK
#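 Material: human UCH37 enzyme supplied as purified proteasome complex / Amount: 0.15 nM proteasome as dispensed / Buffer or medium: pH 7.4 Tris-HCl (50 mM) with ovalbumin, ATP-MgCl2, DTT / Times: preincubation 30 min, reaction 25 min, room temperature / Technique: AMC fluorescence from Ub-AMC cleavage, excitation 355 nm, emission 460 nm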
# Vif TR-FRET = inhibitors of Vif binding to APOBEC3G peptide, primary screen, biochemical, TR-FRET, GST-Vif 1-94, biotin-A3G peptide, dose response retest (AID 1117319); Virion infectivity factor (Human immunodeficiency virus type 1 group M subtype B (isolate …; TR-FRET GST-Vif / biotin-A3G peptide binding; higher % means a stronger effect; test concentration not given here; strong numbers were not always called active; inhibition, %; hits with a dose series show IC50 in µM; 260,000 tested, 0.57% active;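 active = above the screen mean plus three standard deviations and confirmed in dose response; inconclusive = results disagree or hit not tested in dose response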;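 also: Vif residues 1-94 fused to GST binding biotinylated APOBEC3G peptide 110-148; 0% = full assay without inhibitor and 100% = GST in place of GST-Vif; retest series ran down from 100 µM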
# LANA-H2B inh = blockers of LANA interaction with H2A/H2B – biochemical, FP readout, HTS, primary screen. Protein LANA1 (Human herpesvirus 8 type P (isolate GK18)), Q9QR71. cell-free LANA-H2A/H2B peptide, fluorescence polarization. inhibition, % (test concentration not listed). 320,000 tested, 0.6% active. AID 2629, 2010; in the data active = inhibition mostly above about 10%, no sharp cut-off; inactive = mostly below about 6.7%;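 also: stock transfer was 7.5 nL into about 10 µL; 0% = median of vehicle wells and 100% = median of positive control wells; one replicate is shown; the record names a cut of 25% in any replicate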
# Bfl-1 A1 inh = caspase 3/7 activation in MEF A1-2A-BIM cells, primary screen, A1 inhibitor project, cell-based, luminescence, HTS. Caspase-Glo 3/7 luminescence, 3 h; percent of clofoctol response, vehicle zero. caspase activation, % (concentration not given with the values). 330,000 tested, 0.066% active. AID 2462, 2010;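 active = over half of replicate activation scores above 10%, or exactly half above 10 with the replicate mean above 10; inconclusive = replicate mean below 10 yet half the replicates above 10; inactive = over half of replicates below 10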;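 also: wells of about 30 µL received 50 nL stock; many hits fall short of the cut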
# * marks the source's active call; other numbers are inactive results; ? = inconclusive; · = no result given; & = joins results of further samples.
SMILES,HNF4A DNA FP,E coli growth,Beta2AR agonist,UCH37 DUB inh,Vif TR-FRET,LANA-H2B inh,Bfl-1 A1 inh
CN(C)C(=O)COC(=O)c1ccc(S(=O)(=O)NCc2ccco2)cc1,-9.1,0.67,-6,2.4,·,3.0,0.3
N#Cc1ccccc1NC(=O)CNc1ccc(Cl)c(C(F)(F)F)c1,0.2,0.7,12,2.3,>100µM*,-9.6,0.0
O=C(NCc1ccco1)c1ccc2c(c1)C(=O)c1ccccc1-2,-0.8,0.69,-5,-0.5,?,-1.4,-0.1
COc1cc(-c2noc(C)c2C(=O)NCCCn2ccnc2)cc(OC)c1OC,-9.9,0.71,0,1.2,·,-4.3,-0.6
CCOC(=O)c1ccc(NC(=O)CSc2ccc(-c3ccncc3)nn2)cc1,4.9,0.74,1,4.1,-4%,1.3,0.4
COc1cc(/C=C/C(=O)NC(C)C)ccc1OCc1ccccc1,-3.2,0.68,-3,1.4,-4%,3.7,-0.6
O=[N+]([O-])c1cc(S(=O)(=O)N2CCCCCC2)ccc1Cl,3.7,0.7,48*,0.3,·,·,·
CC1CN(S(=O)(=O)c2ccc(C(=O)Nc3nnc(-c4ccc5c(c4)CCCC5)o3)cc2)CC(C)O1 (stereo not drawn),2.1,0.7,3,-148,-2%,3.7,-0.1
CC(=O)c1ccccc1OCCn1nnc(-c2ccc(C)cc2)n1,-2.2,0.67,-13,0.3,-7%,0.1,0.3
CCOC(=O)c1c(C)nc2sc3c(=O)[nH]cnc3c2c1-c1ccc(OC)cc1,8.4,0.68,-1,-10,·,1.4,0.1
N=C1/C(=C\c2ccc(OC(=O)c3ccc(F)cc3)cc2)C(=O)N=C2SC(N3CCCC3)=NN12,-5.1,·,-1,1.6,·,6.2,-2.9
COc1cc(/C=C2\SC(=O)N(c3ccc(Cl)cc3)C2=O)cc([N+](=O)[O-])c1O,-62,·,5,5.7,31%,·,·
Cc1csc(NC(=O)c2cnc3ccccc3n2)n1,0.1,0.7,-14,7.9,·,-1.1,-2.2
Clc1ccccc1CNc1ncnc2nc[nH]c12,4.5,0.66,3,4.8,-7%,-3.3,-0.2
C=C[C@@H]1c2cc(C)ccc2N(S(=O)(=O)c2ccc(C)cc2)[C@H](c2ccccc2)C1(C#N)S(=O)(=O)c1ccccc1 (stereo partly drawn),0.1,·,0,2.9,·,7.4,0.6
CN(C(=O)/C=C/c1cnc2ccccc2c1)C1CCCCC1,-1.5,0.64,0,-0.9,3%,-4.3,1.3
CC1CCN(C(=O)CCc2nnc(-c3ccccc3)o2)CC1,-2.0,0.64,-10,3.8,0%,5.3,0.2
Cc1ccnc(NC(=O)c2ccc3c(c2)C(=O)N(CC2CCCO2)C3=O)c1 (stereo not drawn),-1.4,0.66,-5,3.2,-3%,-6.0,0.9
Cc1cc(=O)n2nc(N3CCCC3C(=O)Nc3ccccc3C)sc2n1 (stereo not drawn),4.0,0.77,-13,2.5,·,0.6,-0.2
O=C(CSC1=NS(=O)(=O)c2cc(Cl)ccc2N1)c1ccc(Cl)cc1,-1.9,0.72,-1,3.1,3%,·,1.0
Cc1nn(CC(=O)Nc2ccncc2)c(C)c1[N+](=O)[O-],0.3,0.69,-4,3.5,·,1.8,-0.1
O=C(CCC1COc2ccccc2O1)Nc1ncccc1O (stereo not drawn),0.8,0.73,10,1.9,1%,1.8,-0.1
COc1ccc(OC)c(C2C(C#N)=C(N)N(N(C)C)C3=C2C(=O)CCC3)c1 (stereo not drawn),2.2,0.65,-1,8.2,·,7.4,?
Cc1cccc(OCC(=O)O/N=C(\N)Cc2ccc([N+](=O)[O-])cc2)c1,-0.8,0.67,4,3.0,6%,-3.0,-0.2
Cc1cc(C(=O)Nc2cccnc2)cs1,-0.1,0.66,3,0.9,4%,-0.8,-2.6
CCOC(=O)N1CC=C2C(C#N)=C(N)C(C#N)(C#N)[C@H](c3ccc(OCC)c(OCC)c3)[C@H]2C1,4.3,0.73,3,4.0,3%&0%,-1.3,0.0
Cc1cccc(NC(=O)N2CCN(Cc3ccc4c(c3)OCO4)CC2)c1C,-0.8,0.7,2,5.5,-4%,-1.5,-0.2
S=c1nc[nH]c2c1ncn2C1CCCC1,0.5,·,-7,·,-9%,-1.2,-0.6
COc1ccc2c(Cl)c(C(=O)NCCCn3ccnc3)sc2c1Cl,0.3,0.7,5,-2.3,?,0.8,0.2
CC(C)(C)OC(=O)[C@H](Cc1ccccc1)NC(=O)c1nc[nH]c1C(=O)N1CCc2ccccc2C1,2.1,·,-8,1.7,·,-2.2,-0.4
CCOCC(=O)Nc1c(C(=O)OCC)oc2ccccc12,4.3,0.72,6,0.0,-2%,·,·
CCOC(=O)C1CCCN(C(=O)c2cc(S(=O)(=O)Nc3ccccc3OC)ccc2C)C1 (stereo not drawn),0.4,0.65,4,3.3,1%,-4.2,-1.1
O=C(O)Cc1cn(Cc2cccc(Cl)c2)c2ccccc12,1.1,0.69,3,6.0,-10%,-0.9,0.5
Cc1cc(N(CCO)CCO)nc(-n2nc(C)cc2C)n1,-3.8,0.7,0,0.2,-1%,2.3,0.2
Cn1c(SCC(=O)Nc2ccc3c(c2)OCO3)nnc1-c1cnccn1,0.7,0.7,14,-2.1,6%,-4.2,-0.4
CC1C(=O)C(C)C(c2ccc(O)cc2)NC1c1ccc(O)cc1 (stereo not drawn),1.5,0.66,4,3.5,-4%,-1.5,-0.8
C#CCOCCOCCOCCNc1nc(N2CCN(C(=O)[C@H](CCC(=O)O)n3cc([C@@H](N)CCCCN)nn3)CC2)nc(N2CCN(C(=O)[C@H](CCCCN)n3cc([C@@H](N)CC(N)=O)nn3)CC2)n1,-3.0,·,-2,3.8,·,1.7,0.0
CCOC(=O)c1sc2nc(CN3CCN(c4cccc(C(F)(F)F)c4)CC3)[nH]c(=O)c2c1C,20,0.7,5,-1.9,·,6.3,0.0
Cc1ccc(S(=O)(=O)CCC(=O)OC(C)C(=O)N2CCc3ccccc32)cc1 (stereo not drawn),4.3,0.7,2,0.6,0%,-6.2,0.5
COCc1cc(C)nc2sc3c(=O)n(Cc4ccco4)nnc3c12,4.8,0.76,-7,1.9,?,·,·

# Whole records from above. Screens in order: HNF4A DNA FP, E coli growth, Beta2AR agonist, UCH37 DUB inh, Vif TR-FRET, LANA-H2B inh, Bfl-1 A1 inh
# `CCOCC(=O)Nc1c(C(=O)OCC)oc2ccccc12` in the list: 4.3, 0.72, 6, 0.0, -2%, ·, ·
# `Cn1c(SCC(=O)Nc2ccc3c(c2)OCO3)nnc1-c1cnccn1` in the list: 0.7, 0.7, 14, -2.1, 6%, -4.2, -0.4

# The list goes on.
SMILES,HNF4A DNA FP,E coli growth,Beta2AR agonist,UCH37 DUB inh,Vif TR-FRET,LANA-H2B inh,Bfl-1 A1 inh
CCN1CCN(c2ncc3c(n2)CC(c2ccc(OC)c(OC)c2)CC3=O)CC1 (stereo not drawn),1.4,0.74,-2,8.9,6%,-1.9,0.3
CCS(=O)(=O)N1Cc2ccccc2CC1C(=O)Nc1nc2ccccc2[nH]1 (stereo not drawn),1.0,0.69,-13,2.2,4%,2.5,0.1
Cc1c(NC(=O)COC(=O)C23CC4CC(CC(O)(C4)C2)C3)c(=O)n(-c2ccccc2)n1C,-4.8,0.67,-3,2.0,·,-2.0,1.0
COc1cc(-c2nnc3n(CCc4ccccc4)c(=O)c4ccccc4n23)cc(OC)c1OC,1.9,0.72,-5,0.8,27%,4.3,0.0
CCOC(=O)NC(Nc1nc2ccccc2s1)(C(=O)OCC)C(F)(F)F (stereo not drawn),0.1,0.76,9,2.5,1%,0.4,-0.1
O=C1C2CCCCN2C(=O)N1CCCCN1CCN(c2ccc([N+](=O)[O-])cc2)CC1 (stereo not drawn),1.9,0.74,-9,-4.3,?,-3.1,-1.2
COc1ccccc1/C=C/C(=O)OCc1nc2ccccc2c(=O)[nH]1,3.0,0.68,0,-7.6,-1%,-0.7,0.5
Cc1cccc(C(=O)Oc2coc(CSc3nnc(NC(=O)C4CC4)s3)cc2=O)c1,4.0,0.7,-3,-1.2,·,-3.7,1.6
Cc1cccc(-n2cnc(C(=O)Nc3cccnc3)c2)n1,9.7,0.65,17,1.6,-3%,2.1,-0.8
CC(C)CN1C(=O)c2ccc(C(=O)Nc3ccncc3)cc2C1=O,-2.8,0.68,-5,2.4,6%,5.0,-1.3
O=C(Nc1ccccc1-c1nnc(SCc2ccccc2)o1)c1ccccc1,-3.9,0.72,4,-6.7,16%,1.0,-0.6
O=C(NCc1ccco1)c1ccc2c(c1)CCO2,-0.9,0.66,-11,2.5,·,3.0,-0.1
CC1CCCN(CCCNS(=O)(=O)c2cc(Br)cc3c2N(C(=O)C2CC2)CC3)C1 (stereo not drawn),-1.3,0.65,-5,3.9,-9%,-1.3,0.5
COc1ccc2ncccc2c1Cc1c(OC)ccc2ncccc12,-3.0,0.69,6,-14,3%,·,·
CCN(Cc1ccccc1)S(=O)(=O)c1ccc2oc(C(=O)O)c(C)c2c1,2.5,0.67,-3,4.1,30%,-4.5,0.2
CNC(=O)COC(=O)c1cc2c(s1)CCCC2,-2.8,0.73,-4,2.3,0%,-5.8,-0.6
Cc1nc2c3cc(F)ccc3n(CCN3CCCCC3)c2s1,1.3,0.67,-8,5.5,5%,-0.8,0.4
CCOC(=O)C1(Cc2ccccc2C(F)(F)F)CCN(C(=O)c2cc(C)n(C)n2)CC1,0.2,0.7,-3,-0.5,-5%,4.2,0.7
COc1cccc(-c2cc(C(=O)Nc3nc4ccccc4s3)c3ccccc3n2)c1,-5.4,0.71,5,-23,-5%,-0.2,-0.2
Cc1ccc(CSc2ncnc3ccccc23)cc1,0.9,0.71,-6,-0.5,·,0.1,0.4

# Next part, starting with the last 4 of the part before.
SMILES,HNF4A DNA FP,E coli growth,Beta2AR agonist,UCH37 DUB inh,Vif TR-FRET,LANA-H2B inh,Bfl-1 A1 inh
Cc1nc2c3cc(F)ccc3n(CCN3CCCCC3)c2s1,1.3,0.67,-8,5.5,5%,-0.8,0.4
CCOC(=O)C1(Cc2ccccc2C(F)(F)F)CCN(C(=O)c2cc(C)n(C)n2)CC1,0.2,0.7,-3,-0.5,-5%,4.2,0.7
COc1cccc(-c2cc(C(=O)Nc3nc4ccccc4s3)c3ccccc3n2)c1,-5.4,0.71,5,-23,-5%,-0.2,-0.2
Cc1ccc(CSc2ncnc3ccccc23)cc1,0.9,0.71,-6,-0.5,·,0.1,0.4
O=c1oc2ccccc2cc1-c1csc(Cc2nc(-c3ccc(Cl)cc3)cs2)n1,3.8,0.67,-2,-117,10%,-4.4,-0.3
CCN1C(=O)N(c2ccc(C(C)=O)cc2)S(=O)(=O)c2ccccc21,0.9,0.63,-8,1.8,-6%,5.4,0.5
COc1ccc(CNC(=O)Cn2cc(C(F)(F)F)ccc2=O)cc1,1.2,0.72,-10,-0.5,·,9.7,?
CCN(C(=O)Cc1c(C(=O)O)[nH]c2ccccc12)c1cc(OC)ccc1OC,3.8,0.71,-11,3.4,0%,2.0,0.1
